Source: PubChem BioAssay (National Center for Advancing Translational Sciences (NCATS))
VACV Venus inh – qHTS for Stage-Specific Inhibitors of Vaccinia Orthopoxvirus: Venus Reporter Primary qHTS; Vaccinia virus Venus reporter expression, fluorescence; Potency, µM (highest dose often 36.5 µM), inactives show top-dose activity change, negative = inhibition, most hits filed as inhibitors; hit rate 0.46% among 330,000; AID 720580, 2013; active means well fitted inhibition curve with a large enough effect; inconclusive means small, poorly fitted or top-dose-only effect; inactive means no such curve, though single readings can be large or run the other way; tested in A549 cells; note: nearly all actives have a fitted effect of over 30% in size; inactives centre near -10
Vaccinia mCherry – qHTS for Stage-Specific Inhibitors of Vaccinia Orthopoxvirus: mCherry Reporter Primary qHTS. Vaccinia virus mCherry reporter infection, fluorescence; about a quarter of the inactives have no number. Potency, µM (top dose mostly 36.5 µM), for the others: top-dose activity change, negative = inhibition, actives largely listed as inhibitors. hit rate 0.63% among 310,000. AID 720579, 2013; active = well fitted inhibition curve with a large enough effect; inconclusive = small, poorly fitted or top-dose-only effect; inactive = no such curve, though single readings can be large or run the other way; tested in A549 cells; note: nearly all actives have a fitted effect of over 35% in size; inactives centre near -10
* = called active by the depositor; i = inactive; ? = inconclusive; . = not tested or not shown. % is set by controls: 0 for no effect and ±100 for the full control effect; potency is the fitted concentration of half-maximal effect.

SMILES	VACV Venus inh	Vaccinia mCherry
Cc1n[nH]c(C)c1S(=O)(=O)N(CC(=O)NC(C)c1ccccc1)c1ccc(C(C)C)cc1 (configuration not stated)	-15%	i
C[C@H](NC(=O)c1nc[nH]c1C(=O)N1CCNCC1)C(=O)OCc1ccccc1	2%	-13%
COc1ccc(CCNS(=O)(=O)c2cccc([N+](=O)[O-])c2)cc1	-19%	-19%
Cc1onc(-c2ccccc2Cl)c1C(=O)N1CCCC1	-15%	-6%
O=C(Nc1ccc(N2CCOCC2)cc1)C1CC(=O)N(c2ccc(F)cc2)C1 (configuration not stated)	-13%	-7%
CCCCOc1ccc(S(=O)(=O)NCc2csc(C)n2)cc1	-27%	?
O=C(Nc1ccncc1)c1cccc(F)c1	-3%	-5%
CCC(=O)c1ccc(OCC(=O)OC(C)C(=O)Nc2c(C)n(C)n(-c3ccccc3)c2=O)cc1 (configuration not stated)	5%	-4%
O=C(c1ccc(S(=O)(=O)N2CCCC2)cc1)N1CCN(c2ccccc2F)CC1	-4%	i
O=C(Nc1ccc(F)cc1)c1cccc2c1C(=O)N(CC1CCCO1)C2 (configuration not stated)	-4%	-13%
COc1ccc(CNC(=O)CN(C(=O)CCC(=O)Nc2ccccn2)c2ccc3c(c2)OCO3)cc1	1%	-13%
CN(CC(=O)NCc1ccco1)S(=O)(=O)c1ccc(F)cc1	16%	i
CCOC(=O)N1CCc2c(sc3nc4n(c(=O)c23)N=C(C)CS4)C1	-21%	.
O=C(COc1ccccc1)NS(=O)(=O)c1ccccc1	4%	i
COc1ccc(NC(=O)C2(C)CCN2CCOc2ccccc2)cc1OC (configuration not stated)	4%	i
O=C(NCC1CCCO1)c1sc2ccccc2c1Cl (configuration not stated)	-14%	-4%
CCC1CCC2(CC1)NC(=O)N(CC(=O)N1CCc3ccccc31)C2=O (configuration not stated)	-17%	-18%
COc1c2c(cc3c1OCO3)CCN(C)C2	3%	-3%
Nc1c(C(=O)c2ccc(Cl)cc2)sc2c1c(=O)[nH]c(=O)n2-c1ccccc1	-12%	-2%
NS(=O)(=O)c1ccc(NS(=O)(=O)c2ccc(Br)cc2)cc1	-1%	i
O=C(CSc1ccc2c(c1)OCCO2)NCC1CCCO1 (configuration not stated)	0%	-5%
CCc1ccccc1OCC(=O)NC1CCCC1	-7%	-13%
CN(C)S(=O)(=O)c1cccc(NC(=O)CCSc2ccc(Cl)cc2)c1	-21%	-11%
Cc1cc(C)n(-c2nc(NCCC(C)C)c3c4c(sc3n2)COC(C)(C)C4)n1	1%	-10%
O=C1C(Cl)=C(N2CCOCC2)C(=O)N1c1ccccc1	-4%	i
Cc1ccc(C(=O)Nc2ccc(O)c(C(=O)O)c2)o1	-8%	-15%
CNC(=O)c1cc(S(=O)(=O)Nc2ccc3c(c2)OCCO3)ccc1C	-12%	i
CC(=O)Nc1ccc(OS(=O)(=O)c2ccccc2C)cc1	1%	-3%
CC(=O)c1cccc(NC(=O)COC(=O)COc2c(Cl)cc(Cl)c3ccc(C)nc23)c1	-15%	-20%
O=C(NC1CC(=O)N(c2ccc(F)cc2)C1)c1ccc2c(c1)OCO2 (configuration not stated)	-16%	-1%
O=C(CNC(=O)c1ccc(Cl)cc1Cl)OCc1nnc(-c2ccccc2)o1	-9%	-13%
Cc1ccc(-c2nc(C3CCN(S(C)(=O)=O)CC3)no2)cc1	-12%	.
COc1cc(OC)nc(C(NC(=O)C2CCN(Cc3ccc(Oc4ccccc4)cc3)CC2)c2ccc(F)cc2)n1 (configuration not stated)	?	-16%
COc1cccc(COC(=O)C2CCN(S(=O)(=O)c3ccc(C)cc3C)CC2)c1OC	-8%	-1%
O=C(CCc1ccccc1)N1C[C@H]2C[C@@H](C1)c1cccc(=O)n1C2	0%	11%
O=C(Nc1ccc(Oc2c(F)c(F)c(F)c(F)c2F)cc1)OC1CCN2Cc3ccccc3N=C12 (configuration not stated)	-13%	-4%
O=c1c2cn[nH]c2nc(SCc2cc(=O)n3cc(Br)ccc3n2)n1-c1ccc(Br)cc1	?	?
CC(=O)C1=C(c2ccccc2)NC(=S)NC1c1cc(Cl)c(OC(C)C)c(Cl)c1 (configuration not stated)	-21%	-12%
CC1CCc2c(sc(NC(=O)c3cc4nc(-c5ccc(Cl)cc5)cc(C(F)(F)F)n4n3)c2C#N)C1 (configuration not stated)	1%	-5%
CCOC(=O)C1CCN(C(=O)Cn2cc(C(=O)c3ccco3)c3ccccc32)CC1	-9%	-17%
COc1cccc2sc(Nc3nnc(-c4ccc(F)cc4)o3)nc12	?	?
COc1ccc(Cl)cc1S(=O)(=O)Nc1cccc(-c2ccc(N3CCCC3)nn2)c1	-27%	?
Cc1ccc(-c2cn3nc(N4CCCC(C(=O)NCc5ccc(F)cc5)C4)sc3n2)cc1 (configuration not stated)	-10%	-14%
O=C(O)CCN1C(=O)/C(=C2\C(=O)N(Cc3ccc(F)cc3)c3ccccc32)SC1=S	0%	-14%
C=C1[C@H]2CC[C@H]3[C@]4(C)C[C@H](O[C@H]5O[C@H](CO)[C@@H](OS(=O)(=O)O)[C@H](OS(=O)(=O)O)[C@H]5OC(=O)CC(C)C)C[C@@H](C(=O)O)[C@H]4CC[C@]3(C2)[C@H]1O	-4%	-9%
COc1ccc(/C=C/C(=O)OCC(=O)Nc2cccc(Oc3ccccc3)c2)c(OC)c1	-5%	-13%
CCCc1[nH]nc2c1C(c1ccc(OC)c(Cn3nc(C)c(Br)c3C)c1)C(C#N)=C(N)O2 (configuration not stated)	-13%	-11%
CCC(=O)N1CCc2cc(-c3csc(NC(=O)c4ccco4)n3)ccc21	6%	i
O=C(Nc1ccccn1)c1cc2cc([N+](=O)[O-])ccc2s1	-7%	i
CCN(C(=O)c1cccn(Cc2ccccc2C)c1=O)c1ccccc1	-4%	-6%
COc1cc(O)c(C(CC(=O)N2CCCCC2)c2cc(OC)c(OC)c(OC)c2)c(OC)c1 (configuration not stated)	-11%	-17%
CCC1CCCCN1Cc1nc2c(c(=O)n(C)c(=O)n2C)n1Cc1cccc2ccccc12 (configuration not stated)	11%	-13%
Cc1cc2oc(=O)cc(-c3ccccc3)c2c(C)c1-c1ccc(F)c(Cl)c1	-22%	-6%
COc1ccc(CCC(=O)NNC(=O)Nc2ccc(C(C)C)cc2)cc1	-7%	-25%
O=C(NCc1ccccc1)C1=C[C@H](c2coc3ccccc3c2=O)C[C@H](OCCCCO)O1	-10%	i
O=C1/C(=C\c2ccc3ccccc3c2)CCCc2ccccc21	-27%	?
O=C(NC1CCCC1)c1cc(-c2ccc(F)cc2)on1	-14%	i
COC(=O)CCS(=O)(=O)c1ccc(NC(C)=O)cc1	-21%	i
NCCNc1ccc(C(=O)N2c3ccccc3Sc3ccccc32)cc1[N+](=O)[O-]	-23%	-5%
O=C(Nc1ccc(N2CCCC2)cc1)c1cccc(Cl)c1	-4%	?

3 compounds out of the list, sorted by formula weight, smallest number first:
SMILES	VACV Venus inh	Vaccinia mCherry
COC(=O)CCS(=O)(=O)c1ccc(NC(C)=O)cc1	-21%	i
O=C(Nc1ccccn1)c1cc2cc([N+](=O)[O-])ccc2s1	-7%	i
O=C(Nc1ccc(N2CCCC2)cc1)c1cccc(Cl)c1	-4%	?

(listing goes on)
SMILES	VACV Venus inh	Vaccinia mCherry
CC(C)[C@H](NC(=O)N1C[C@H]2C[C@@H](C1)c1cccc(=O)n1C2)C(=O)Nc1ccccc1F	-2%	0%
CC1=C(C(=O)OCc2ccccc2)C(c2ccc(C(C)(C)C)cc2)NC(=O)N1CCCCCC(=O)O (configuration not stated)	-4%	-6%
CCn1cc2nc(SCc3ccc(C)cc3)n(CCc3ccccc3)c(=O)c2n1	-5%	-15%
CCN(CC)S(=O)(=O)c1ccc(N2CCOCC2)c(NC(=O)c2sccc2C)c1	-16%	-13%
OCC[C@H]1C[C@@H](O)[C@H](O)[C@]2(CCc3ccccc3O2)O1	-2%	i
Cc1ccccc1C(=O)c1cccn1CC(=O)NCC1CCCO1 (configuration not stated)	-12%	.
COCCC(=O)N1CCC(Oc2ccc(C(=O)NC3CCOC(C)(C)C3)cc2)CC1 (configuration not stated)	-12%	i
COc1cccc(C=Nc2cc(C(C)C)c(O)cc2C)c1O	-12%	-3%
Cc1ccc(-n2c(CSc3nc(C)cc(C)n3)n[nH]c2=S)cc1	-12%	-7%
Cc1ccccc1CSc1nc2c(sc3ccccc32)c(=O)n1CCCOC(C)C	3%	-8%
Cc1ccc(C(=O)Nc2ccc(Br)cc2)cc1S(=O)(=O)Nc1ccccn1	-4%	i
C(=Nc1ccc(/C=C/c2ccnc3ccccc23)cc1)c1ccco1	-16%	-18%

Arranged by length of the SMILES (largest number first): part of the list above.
SMILES	VACV Venus inh	Vaccinia mCherry
CC(C)[C@H](NC(=O)N1C[C@H]2C[C@@H](C1)c1cccc(=O)n1C2)C(=O)Nc1ccccc1F	-2%	0%
CC1CCc2c(sc(NC(=O)c3cc4nc(-c5ccc(Cl)cc5)cc(C(F)(F)F)n4n3)c2C#N)C1 (configuration not stated)	1%	-5%
CC1=C(C(=O)OCc2ccccc2)C(c2ccc(C(C)(C)C)cc2)NC(=O)N1CCCCCC(=O)O (configuration not stated)	-4%	-6%
CCC(=O)c1ccc(OCC(=O)OC(C)C(=O)Nc2c(C)n(C)n(-c3ccccc3)c2=O)cc1 (configuration not stated)	5%	-4%
Cc1n[nH]c(C)c1S(=O)(=O)N(CC(=O)NC(C)c1ccccc1)c1ccc(C(C)C)cc1 (configuration not stated)	-15%	i
O=C(Nc1ccc(Oc2c(F)c(F)c(F)c(F)c2F)cc1)OC1CCN2Cc3ccccc3N=C12 (configuration not stated)	-13%	-4%
O=c1c2cn[nH]c2nc(SCc2cc(=O)n3cc(Br)ccc3n2)n1-c1ccc(Br)cc1	?	?
CC(=O)c1cccc(NC(=O)COC(=O)COc2c(Cl)cc(Cl)c3ccc(C)nc23)c1	-15%	-20%
CCC1CCCCN1Cc1nc2c(c(=O)n(C)c(=O)n2C)n1Cc1cccc2ccccc12 (configuration not stated)	11%	-13%
COc1ccc(Cl)cc1S(=O)(=O)Nc1cccc(-c2ccc(N3CCCC3)nn2)c1	-27%	?
O=C(c1ccc(S(=O)(=O)N2CCCC2)cc1)N1CCN(c2ccccc2F)CC1	-4%	i
Cc1cc2oc(=O)cc(-c3ccccc3)c2c(C)c1-c1ccc(F)c(Cl)c1	-22%	-6%
OCC[C@H]1C[C@@H](O)[C@H](O)[C@]2(CCc3ccccc3O2)O1	-2%	i
CCn1cc2nc(SCc3ccc(C)cc3)n(CCc3ccccc3)c(=O)c2n1	-5%	-15%
CN(C)S(=O)(=O)c1cccc(NC(=O)CCSc2ccc(Cl)cc2)c1	-21%	-11%
CNC(=O)c1cc(S(=O)(=O)Nc2ccc3c(c2)OCCO3)ccc1C	-12%	i
C(=Nc1ccc(/C=C/c2ccnc3ccccc23)cc1)c1ccco1	-16%	-18%
CN(CC(=O)NCc1ccco1)S(=O)(=O)c1ccc(F)cc1	16%	i
CC(=O)Nc1ccc(OS(=O)(=O)c2ccccc2C)cc1	1%	-3%
COC(=O)CCS(=O)(=O)c1ccc(NC(C)=O)cc1	-21%	i
O=C(NC1CCCC1)c1cc(-c2ccc(F)cc2)on1	-14%	i
O=C(CSc1ccc2c(c1)OCCO2)NCC1CCCO1 (configuration not stated)	0%	-5%
O=C(NCC1CCCO1)c1sc2ccccc2c1Cl (configuration not stated)	-14%	-4%
COc1c2c(cc3c1OCO3)CCN(C)C2	3%	-3%
CCc1ccccc1OCC(=O)NC1CCCC1	-7%	-13%

(listing goes on)
SMILES	VACV Venus inh	Vaccinia mCherry
CCCCCc1cc(=O)oc2c(C(CCN3CCCC(C)C3)c3cc(OC)c(OC)c(OC)c3)c(OC)cc(OC)c12 (configuration not stated)	?	?
O=C(/C=C/c1ccc2c(c1)OCO2)Nc1cccnc1	-19%	6%
CC(=O)N1CCN(S(=O)(=O)c2cccc(C(=O)OCC(=O)NCc3ccccc3Cl)c2)CC1	-11%	i
CN1c2ccc(Cl)cc2-c2nc(SCC(=O)NCc3ccccc3)ncc2S1(=O)=O	-6%	-16%
N#CC1=C(N)NC(SCC(=O)c2ccccc2)=C(C#N)C12CCCC2	-16%	i
COc1ccc2cc(CO)c3cc(OC)c(OC)cc3c2c1	?	?
C=CCNc1nc(-c2c(C)nc3ncccn23)cs1	-7%	-1%
CNS(=O)(=O)c1ccc(C)cc1	-3%	-5%
Cn1c2ccccc2c(=O)c2cc(NCCCN3CCOCC3)ccc21	-14%	-1%
CCOC(=O)c1scc(-c2ccc(C)cc2)c1S(=O)(=O)N1CCN(c2ccccc2F)CC1	-5%	1%
O=C(N/N=C/c1ccc(C(=O)O)cc1)C(=O)N1CCCCCC1	-3%	-14%
CN(C(=O)COC(=O)c1ccccc1OCc1ccc(Cl)cc1)c1c(N)n(Cc2ccccc2)c(=O)[nH]c1=O	-13%	-14%
CCCn1ccc2c(OCC(=O)Nc3ccc(F)cc3F)cccc2c1=O	-5%	-8%
COc1ccc(CNC(=O)C/C(C)=N/NC(=O)c2ccccc2OC)cc1	2%	-7%

Not a hit list; any-hit rate near 0.88%.
